Screening results: PubChem, National Center for Advancing Translational Sciences (NCATS)
HPGD inh: HPGD (human) dehydrogenase inhibition | P15428 | AID 894 | actives 4.3% (n = 150,000) | purified HPGD, NADH fluorescence kinetic, PGE2 substrate | Potency, µM, without a hit: at the highest dose activity change, negative = inhibition, most hits filed as inhibitors; active = well fitted inhibition curve with a large enough effect (not every such curve was filed as active); inconclusive = small, poorly fitted or top-dose-only effect, or another doubt; inactive = no such curve, though single readings can be large or run the other way;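 also: top concentration of the series not given in the record; plate controls included wells without enzyme; inactives centre near -10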
Target sequence (P15428 whole entry, looked up): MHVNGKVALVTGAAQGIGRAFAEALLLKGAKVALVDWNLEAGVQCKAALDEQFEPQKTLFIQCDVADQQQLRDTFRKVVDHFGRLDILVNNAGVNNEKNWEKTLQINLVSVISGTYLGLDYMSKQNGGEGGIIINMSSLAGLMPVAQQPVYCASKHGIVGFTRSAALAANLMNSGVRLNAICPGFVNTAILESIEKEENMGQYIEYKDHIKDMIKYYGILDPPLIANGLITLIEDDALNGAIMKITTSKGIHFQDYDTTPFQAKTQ
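NADH formation kinetics: reaction with 30 uM PGE2 and 1 mM NAD+ (final), 20 nM enzyme, Tris-HCl pH 8 with Tween 20, after 15 min compound preincubation at room temperature. Fluorescence change, last versus first of five reads.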
The depositor's hits bear a star; u = inconclusive; & = joins results of further samples. % is scaled to controls: 0 for no effect and ±100 for the full control effect; potency is read from the fitted curve at half-maximal effect. An excerpt. The share of hits here may be higher or lower than overall.

SMILES	HPGD inh
CCOC(=O)C1CCN(C(=S)Nc2cc(C)ccc2C)CC1	-6.9%
CCN(CC)CCNC(=O)CCCNC(=O)Cn1cnc2sc(C)c(C)c2c1=O	-10.7%
Cn1c(SCC(=O)NCc2cccs2)nnc1-c1ccc(S(=O)(=O)N2CCCC2)cc1	-3.7%
Cc1ccc2c(Cl)c(C(=O)NCC3CCCO3)sc2c1 (stereo not drawn)	14.1µM*
O=C(CSc1nnc(CCCO)n1-c1ccccc1)NCCc1ccccc1	-17.4%
N#C/C(=C\Nc1ccccc1SC(F)(F)F)c1nc(-c2ccccc2)cs1	-8.7%
CC(NS(=O)(=O)c1ccccc1)C(c1cccs1)N1CCOCC1 (stereo not drawn)	1.5%
CCOc1ccccc1N(CC(=O)Nc1ccccc1C(=O)O)S(C)(=O)=O	-10.2%
COc1ccc(CC2S/C(=C(\C#N)C(=O)NCc3ccco3)N(c3ccc(C)cc3)C2=O)cc1 (stereo not drawn)	-7.4%
CCC(C)NC(=O)Cn1c(=O)n(-c2ccccc2)c(=O)c2ccc(C(=O)NCc3ccco3)cc21 (stereo not drawn)	-3.0%
O=C(/C=C/c1ccc(O)cc1)OCc1occc(=O)c1O[C@@H]1OC(CO)[C@@H](O)[C@H](O)[C@@H]1O (stereo partly drawn)	-14.4%
COc1ccc(C(c2c(NC(=O)c3ccccc3)sc(C)c2C)N2CCN(CCO)CC2)cc1 (stereo not drawn)	-14.0%
Cc1cc(SCC#N)n2nc(C)c(-c3ccc(Cl)cc3)c2n1	-7.0%
CNS(=O)(=O)c1cccc(C(=O)OCc2cc(Cl)cc3c2OCOC3)c1	-25.8%
O=C1C=C(Nc2ccc(Cl)cc2)CC(c2ccccc2)C1 (stereo not drawn)	-9.8%
Cc1cc(C)n2c(Nc3ccc4c(c3)OCCO4)c(-c3ccc(C)o3)nc2n1	-6.4%
CC1=C(OC(=O)C(C)(C)C)C(C)(C)C(c2ccccc2)OC1=O (stereo not drawn)	-0.2%
CCN1C(=O)N(S(=O)(=O)C(F)(F)F)[C@@H](c2ccccc2)C(C(=O)OC)=C1C	-8.2%
CC(C)c1c(O)nc(SCCN2CCOCC2)[nH]c1=O	-3.1%
O=c1c2c(ncn1CCO)nc1n2CCC1	-3.4%
CCN(CC1COc2ccccc2O1)S(=O)(=O)c1ccc(C)cc1 (stereo not drawn)	-9.3%
CCn1nc(CCC(=O)O)c2ccccc2c1=O	-13.1%
CC1(C)CC(=O)C2=C(C1)N(Cc1ccco1)C(=O)NC2(C(F)(F)F)C(F)(F)F	5.9%
COc1cccc(-n2c(SCC(N)=O)nc3c([nH]c4ccccc43)c2=O)c1	-13.2%
COC(=O)c1nc2n(n1)C(c1cc(OC)ccc1OC)C(C(=O)OC1CCCCC1)=C(C)N2 (stereo not drawn)	-5.9%
O=C(NCC(c1cccnc1)N1CCN(c2ccc(F)cc2)CC1)c1ccc2c(c1)OCO2 (stereo not drawn)	-16.9%
c1ccc(N2CCN(CCCOc3ccc4c(c3)OCO4)CC2)cc1	-4.9%
Cn1c(=O)oc2cc(S(=O)(=O)NCCN3CCc4ccccc4C3)ccc21	-8.0%
COc1ccccc1-n1cc(C(=O)NCC(=O)N2CCN(c3ccccc3)CC2)c2ccccc2c1=O	-7.4%
CC1CC(C)(C)CC2(C1)NC(=S)N(c1ccccc1)N2 (stereo not drawn)	-9.3%
Cc1cccc(Nc2ncc3c(n2)CC(c2ccco2)CC3=O)c1 (stereo not drawn)	-21.5%
CC(C)(C)N(Cc1ccccc1)C(=O)CSc1nc2ccccc2c(=O)[nH]1	-16.7%
CCOCCn1c(N2CCN(c3ccc(OC)cc3)CC2)nc2c1c(=O)[nH]c(=O)n2C	-4.8%
Cc1cc(=O)[nH]c2c1c(C)nn2C1CCCCC1	-10.2%
COc1ccccc1CNC(=O)C1CCN(S(=O)(=O)N2CCCCC2)CC1	-7.8%
CCc1c(C(=O)NCc2cnn(C)c2)csc1C	-14.6%
COc1cccc(/C(O)=C2\C(=O)C(=O)N(c3ccccn3)C2c2cccc(OC)c2OC)c1 (stereo not drawn)	-19.9%
C=CCNC(=O)c1ccc(C)c(Br)c1	u
Cc1n[nH]c(C)c1N1C(=O)c2cccc3c(N4CCCCCC4)ccc(c23)C1=O	u
COc1ccc(NC(=S)N2CCC(C(O)(c3ccccc3)c3ccccc3)CC2)cc1	-1.6%
O=C(CNC(=O)c1ccccc1)OCc1ccc([N+](=O)[O-])cc1	-13.5%
COCCNC(=O)C(=O)N/N=C(\C)CC(=O)Nc1ccc(Cl)cc1Cl	-9.7%
CCOC(=O)c1ccc(CNC(=O)Cn2nnc(-c3ccc(C)cc3)n2)o1	-12.2%
Nn1c(=S)[nH]nc(Cc2ccc(O)cc2)c1=O	-15.6%
Cc1ccc(NC(=O)CCN2C(=O)CSC2=O)c(C)c1	-2.0%

HPGD inh: what is marked active above
SMILES	HPGD inh
Cc1ccc2c(Cl)c(C(=O)NCC3CCCO3)sc2c1 (stereo not drawn)	14.1µM*

(list continues)
SMILES	HPGD inh
Cc1ccc2c(c1)c1c(n2CC(O)Cn2c(C)nc3ccccc32)C(=O)CCC1 (stereo not drawn)	u
COC(=O)CCN(C1CCCCC1)S(=O)(=O)c1ccc(S(=O)(=O)NC2CCCCC2)cc1	-16.7%
O=[N+]([O-])c1cc(S(=O)(=O)NCCCN2CCOCC2)ccc1Cl	-17.2%
CCC(CC)NCc1ccc(OC)cc1OC	-9.0%
O=C(/C=C/c1ccc(Cl)c(Cl)c1)n1cccn1	-3.1%
CN(C)C(=O)N1CCC(C(=O)NCc2ccc3c(c2)OCO3)CC1	-15.7%
CCN1CCCC1Cn1cnc2c([nH]c3cccc(Cl)c32)c1=O (stereo not drawn)	u
COc1c2c(nc3ccccc13)OC(C(C)(O)COC(C)=O)C2 (stereo not drawn)	-17.3%
COC(=O)COc1ccccc1C(N)=O	-25.0%
C=CCn1c(NCCO)nc2c1c(=O)n(C)c(=O)n2C	-8.6%
Cc1sc(NC(=O)c2ccco2)c(C(c2cccnc2)N2CCN(c3ccc(F)cc3)CC2)c1C (stereo not drawn)	u
CCc1ccccc1NC(=O)c1ccc(-n2c(C)ccc2C)cc1	15.8µM*
Cc1cc(Br)ccc1SCC(=O)OCC(=O)Nc1ncc(C(F)(F)F)cc1Cl	-17.5%
O=C(COC(=O)c1ccc(CNS(=O)(=O)c2ccc(F)c(Cl)c2)cc1)NCC1CCCCC1	-10.3%
O=C(Nc1ccc(OC(=O)c2ccco2)cc1)c1ccco1	-23.3%
Cc1ccc(OCc2nc3c4c(ncn3n2)-c2ccccc2CC42CCCC2)cc1	-29.7%
O=C(Nc1ccc(Cl)cc1Cl)c1cccc(N2C(=O)C=CC2=O)c1	-2.9%
CC(C)OC(=O)c1cccnc1N1CCN(c2ccc(F)cc2)CC1	1.3%
COc1ccc(S(=O)(=O)Nc2cc(C)on2)cc1OC	-8.0%
CCOCCCN(C(=O)Nc1ccc(CC)cc1)C1CCN(C(C)=O)CC1	5.3%
O=S(=O)(c1ccccc1)N1CCN(c2nnnn2-c2ccccc2)CC1	-1.0%
CCOC(=O)Nc1cccc(OCC(=O)Nc2ccc(OC)cc2OC)c1	-12.2%
Cc1cc(C)cc(N(CCC(=O)Nc2nnc(C)s2)S(=O)(=O)c2ccc(Cl)cc2)c1	-1.3%
CCCCn1c(C(C)NC(=O)CC)nc2ccccc21 (stereo not drawn)	-5.5%
Cc1oc2cc3c(C(=O)N4CCCCC4)c(C)oc3cc2c1C(=O)N1CCCCC1	4.47µM*
CCN(CC)C(=O)CN1CCN(c2ccccc2F)CC1	-6.0%
O=C1C=CC(=O)N1N(c1ccccc1)c1ccccc1	1.41µM*
Cc1ccc(NC(=O)CN2CCN(CCN=CC3=C(O)CC(c4ccccc4)CC3=O)CC2)cc1 (stereo not drawn)	-6.4%
COc1cccc(/C=C/C(=O)OCC(=O)NCc2ccco2)c1	u
CCCNC(=O)N1CCN(S(=O)(=O)c2ccc(C)cc2)CC1	-9.4%

Arranged by formula weight (high to low): some entries from above.
SMILES	HPGD inh
Cc1ccc(OCc2nc3c4c(ncn3n2)-c2ccccc2CC42CCCC2)cc1	-29.7%
CCCNC(=O)N1CCN(S(=O)(=O)c2ccc(C)cc2)CC1	-9.4%
CCCCn1c(C(C)NC(=O)CC)nc2ccccc21 (stereo not drawn)	-5.5%

Following part:
SMILES	HPGD inh
CC1CCN(Cc2cnc(Cl)s2)CC1	-10.1%
CCc1nnc(N2C(=O)c3cccc4cccc(c34)C2=O)s1	u
Cc1nc2cc(C(=O)NCc3ccc4c(c3)OCO4)ccc2n1-c1ccc(Br)cc1	-9.3%
CCCOc1ccc2oc(=O)c3c(c2c1)CCCN3C(=O)CN1CCc2ccccc2C1	u
COc1ccc2nc(N3CCCC3)c(C#N)cc2c1	-11.1%
CC(=O)c1cccc(-n2nnnc2SCC(=O)Nc2ccccc2N2CCCCC2)c1	-14.1%
Cc1ccccc1OCCn1cnc2c(N)ncnc21	u
COC(=O)CCC(=O)OC1(C)C(=O)C=C2C=C(C3CC3)N(CC(C)C)C=C2C1=O (stereo not drawn)	-10.4%
COc1ccc2[nH]c(O)c(N=NC(=N)N)c2c1	-7.1%
Cc1nn(Cc2ccc(F)cc2)c(C)c1NC(=O)C1c2ccccc2Oc2ccccc21	-1.3%
O=C(CC1(O)C(=O)N(Cc2ccccc2)c2ccccc21)c1ccc2c(c1)OCO2 (stereo not drawn)	-5.0%
CCOC(=O)c1ccc(NS(=O)(=O)c2ccc3c(c2)CCCN3C(C)=O)cc1	u
Cn1nc(CC(=O)NCc2cccc3ccccc23)c2ccccc2c1=O	-3.8%
CCCc1cc(=O)n2[nH]c(NCc3c(F)cccc3Cl)nc2n1	-5.8%
c1ccc2c(Oc3ccc4c(c3)OCO4)nncc2c1	-3.6%
CCOC(=O)N1CCN(C(=O)C(C)SCc2ccccc2)CC1 (stereo not drawn)	-4.1%
N#Cc1ccc(C(=O)Nc2cccc3ncccc23)c(F)c1	-17.5%
CC(C)CC(=O)NC(=S)N1CCCCCC1	-5.4%
COc1cccc(OC)c1C(=O)n1nc(C)cc1C	-10.0%
CCCCOC(=O)C1=C(C)NC2(O)c3ccccc3C(=O)C12O (stereo not drawn)	-9.3%
CCOC(=O)C(Cc1ccccc1)NC(=O)Cn1nnc(-c2ccc(SC)cc2)n1 (stereo not drawn)	-10.4%
COC(=O)C1CCC(C)(C(=O)Nc2ccccc2)C1(C)C (stereo not drawn)	-8.4%
CCN(CC)c1ccc(NC2=C(Cl)C(=O)c3ccccc3C2=O)cc1	7.94µM*
Oc1ccc(-c2nc3c4c(ncn3n2)-c2ccccc2CC42CCCC2)cc1	-16.8%
CCCCn1nnnc1SCC(=O)Nc1ccc(F)cc1	-4.9%
COC(=O)c1ccc(-c2ncc(-c3cccc4ccccc34)o2)cc1	u
CCOc1c(Cl)cc(C(=O)Nc2ccccc2-c2ccccc2)cc1Cl	u
COc1ccc2c(c1)CC/C(=C/c1ccncc1)C2=O	-7.6%
COC(=O)C[C@H]1c2ccccc2C2=C(C[C@@H](C)[C@H]3C(=O)N(c4ccccc4)C(=O)[C@@H]23)N1C(=O)OC	-3.7%&-5.1%
Cc1cccc(Nc2nc3c(c(=O)n(C)c(=O)n3C)n2CC(O)CO)c1 (stereo not drawn)	3.2%

An excerpt of these results, as comma-separated lines:
Compound,HPGD inh
CCCCOC(=O)C1=C(C)NC2(O)c3ccccc3C(=O)C12O (stereo not drawn),-9.3%
CCOc1c(Cl)cc(C(=O)Nc2ccccc2-c2ccccc2)cc1Cl,u
COC(=O)C[C@H]1c2ccccc2C2=C(C[C@@H](C)[C@H]3C(=O)N(c4ccccc4)C(=O)[C@@H]23)N1C(=O)OC,-3.7%&-5.1%
CCCCn1nnnc1SCC(=O)Nc1ccc(F)cc1,-4.9%
COC(=O)c1ccc(-c2ncc(-c3cccc4ccccc34)o2)cc1,u
Cc1cccc(Nc2nc3c(c(=O)n(C)c(=O)n3C)n2CC(O)CO)c1 (stereo not drawn),3.2%
CCN(CC)c1ccc(NC2=C(Cl)C(=O)c3ccccc3C2=O)cc1,7.94µM*

Following part.
SMILES	HPGD inh
CCCOc1ccc(N2C(=O)CC(SCCN)C2=O)cc1 (stereo not drawn)	-13.1%
O=C(Nc1nccs1)c1ccc(S(=O)(=O)NCc2cccs2)cc1	-14.0%
C/C(=N\Nc1ccc([N+](=O)[O-])cc1[N+](=O)[O-])c1ccc(-n2nncc2C(C)(C)C)cc1	-21.0%
O=C(O)COc1ccc(OCCNC[C@@H](O)COc2ccccc2)cc1	-0.4%
Cc1nn(C)cc1CNC(=O)CCC(=O)O	-8.7%
CCN(CC)c1ccc(CN(C(=O)c2cc(OC)c(OC)c(OC)c2)C2CCS(=O)(=O)C2)cc1 (stereo not drawn)	-18.2%
CCOC(=O)c1cc(C(C)C)sc1NC(=O)COC(=O)CCS(=O)(=O)c1ccccc1	-9.8%
COc1cccc2oc(-c3ccc(O)cc3)cc(=O)c12	-25.3%
ClCc1nnc(-c2ccccc2)o1	-15.4%
CCN(CC)c1nc(N)c([N+](=O)[O-])c(NCCO)n1	-15.6%
COc1cnc(SCc2ccc(Cl)cc2Cl)nc1Cl	17.8µM*
CNC(=S)N(CCc1ccc(OC)c(OC)c1)Cc1cc2c(C)cc(C)cc2[nH]c1=O	-4.3%
N[C@]1(C(=O)O)CCc2cc(P(=O)(O)O)ccc21	0.9%
O=C(Nc1ccc(Cl)cn1)c1cc(S(=O)(=O)N2CCCCC2)ccc1Cl	-13.2%
Cc1ccc2c(c1)N(CC(=O)NC1CCCc3ccccc31)C(=O)CO2 (stereo not drawn)	-3.0%
CCCN(CCC)CC(=O)Nc1cccc2c1OCO2	-1.0%
CCOc1c2c(nc3ccc(Cl)cc13)CCC2	0.4%
CCOc1ccc(OCC)c(NS(=O)(=O)c2ccc3c(c2)n(C)c(=O)c(=O)n3C)c1	-12.0%
